# Kir21 inh: Kir2.1 (mouse) channel inhibition | P35561 | HEK293-Kir2.1, FluxOR thallium flux fluorescence; stronger effect = lower value | B-score at 10 µM | hit rate 0.85% among 310,000 | AID 1672;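 active = fluorescence ratio B-score at or below minus 3 SD of library scores, with starting-brightness B-score within 2 SD, cut at about -4.2 in these data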;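 also: channel flux triggered by added potassium and thallium sulfate stimulus; B-score of peak minus minimum fluorescence over baseline after thallium stimulus; more negative B-score means stronger Kir2.1 block with less thallium influx; some compounds called inactive have numbers as strong as hits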
# Target sequence (P35561 whole entry, looked up): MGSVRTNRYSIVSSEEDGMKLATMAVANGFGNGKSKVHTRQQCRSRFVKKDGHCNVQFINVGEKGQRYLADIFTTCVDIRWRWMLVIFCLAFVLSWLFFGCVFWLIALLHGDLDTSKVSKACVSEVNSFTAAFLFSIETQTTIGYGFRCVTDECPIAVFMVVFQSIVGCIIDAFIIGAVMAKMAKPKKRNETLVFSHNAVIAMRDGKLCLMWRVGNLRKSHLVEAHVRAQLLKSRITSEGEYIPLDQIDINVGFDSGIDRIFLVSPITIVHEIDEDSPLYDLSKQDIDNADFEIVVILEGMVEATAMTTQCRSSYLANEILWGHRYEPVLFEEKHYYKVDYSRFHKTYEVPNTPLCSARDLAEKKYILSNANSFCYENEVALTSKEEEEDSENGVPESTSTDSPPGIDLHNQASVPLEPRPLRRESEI
# Numbers without * were called inactive; & = joins results of further samples. The list is partial; most or all hits stand in other tables.
Kir21 inh	Compound
-2.6	COC(=O)c1sc(C(F)(F)F)c(-c2ccccc2)c1S(=O)(=O)N(C)C
-2	COc1ccc(/C=N/NC(=O)CCn2cnc(-c3ccccc3)c2-c2ccccc2)cc1
0.01	Cc1ccccc1S(=O)(=O)Cc1ccc(C(=O)NCc2cccs2)o1
-0.33	COCCCNC(=O)c1ccc(CS(=O)(=O)Cc2cccc(C)c2)o1
1	CCOC(=O)/C(C#N)=C/Nc1cc(OC)ccc1OC
0.04	Cc1cccc(OCC(=O)Nc2sc3c(c2C#N)CCC3)c1
-0.96	C=CCOC(=O)C1=C[C@@H](c2csc3ccccc23)C[C@@H](OCc2ccc(CO)cc2)O1
0.64	O=C(COc1ccc(/C=N/NC(=O)CSCc2ccc([N+](=O)[O-])cc2)cc1)NCc1ccco1
-1.2	CC1(C)CCc2nc(SCc3ccccc3)c(C#N)cc2C1
1.9	COCc1nnc(NC(=O)c2ccc(S(=O)(=O)N(CC(C)C)CC(C)C)cc2)o1
-1.1	CCCNC(=O)COC(=O)c1ccccc1C(=O)c1ccc(Cl)c([N+](=O)[O-])c1
-0.04	CN1CCN(C(=O)c2ccc(CSc3ccc(Cl)cc3)cc2)CC1
-0.38	Cc1ccc(-c2c(C#N)c(N)n3c(nc4ccccc43)c2C#N)cc1
1.5	CCCn1c(C(C)NC(C)=O)nc2ccccc21 (stereo unspecified)
0.45	COc1cc(Br)cc2cc(C(=O)N3CCN(C(=O)c4ccco4)CC3)c(=O)oc12
-0.5	CN1C(=O)C(=O)/C(=C(/O)c2ccccc2)C1c1ccc([N+](=O)[O-])cc1 (stereo unspecified)
1.7	Cc1ccc(Nc2ncnc3c2oc2ccccc23)cc1
0.78	COc1ccc(/C=N/NC(=O)c2cc(-c3ccccc3)nc3ccccc23)c(OC)c1
0.73	Cc1nnc(CN(C)C(=O)c2cc(COc3ccc(C)c(C)c3)on2)o1
0.56	Cc1ccccc1NC(=O)Cc1nc(CSc2nnc(-c3ccc4c(c3)OCO4)o2)cs1

# (next part)
Kir21 inh	Compound
-0.13	COc1cccc(NC(=O)Cc2c(O)c3ccccc3[nH]c2=O)c1
-1.7	Cc1ccc(C)c(Cn2c(C(=O)OC(C)C)cc3c2ccn3C)c1
-3.1	CCN(CC)C(=O)CSc1nc(N)c(C(=O)Nc2ccc(OC)cc2)s1
0.61	CC(=O)Nc1nnc(SCC(=O)N2CCc3ccccc32)s1
-0.1	C=CCn1c(=NC(=O)c2ccc(S(=O)(=O)N3CCCc4ccccc43)cc2)sc2cc(S(N)(=O)=O)ccc21
0.85	CCc1c(C)nc2ncnn2c1N1CCC(C(=O)Nc2ccccc2)CC1
1.9	COc1ccc(O)c(C(=O)c2cc(C#N)c(=O)n(CC3CCCO3)c2)c1 (stereo unspecified)
1.4	CC(C)(CNC(=O)c1ccc(S(=O)(=O)N2CCCC2)cc1)N1CCOCC1
-1.2	COc1ccc(NC(=O)c2cc(-c3ccccc3)oc2C)cc1
-0.69	COc1cc2c(C(=O)NCc3ccccn3)cn(C)c(=O)c2cc1OC
0.58	O=C(CN(C(=O)CCC(=O)Nc1ccccn1)c1ccc2c(c1)OCO2)NCc1ccco1
-0.69	COc1ccc(C(=O)Nc2cnc3ccccn3c2=O)cc1
0.02	O=C(NC1CCCC1)C(=O)N(Cc1cccnc1)C(C(=O)NCC1CCCO1)c1ccco1 (stereo unspecified)
0.44	CC(C)OCCCNC(=O)C1CCC(CNS(=O)(=O)c2cccc3nsnc23)CC1 (stereo unspecified)
0.54	O=C(CN1CCCCCC1=O)N1CCN(S(=O)(=O)c2cccs2)CC1
1.4	O=C(CN1C2=NCCN2c2ccccc21)c1ccco1
-0.01	COc1ccc(S(=O)(=O)NCC2CCC(C(=O)NCc3ccco3)CC2)cc1 (stereo unspecified)
0.83	Cc1cc(C=C2C(=O)c3ccccc3C2=O)c(C)n1-c1cccc(C(=O)O)c1
0.6	O=S(=O)(c1ccc2c(c1)OCCO2)N1CCN(c2nc3ccccc3s2)CC1
-1.1	CCCSC1=C(C#N)C(c2ccccc2C)CC(=O)N1 (stereo unspecified)

# Arranged by molar mass (rising): part of the list above
Kir21 inh	Compound
-0.13	COc1cccc(NC(=O)Cc2c(O)c3ccccc3[nH]c2=O)c1
0.85	CCc1c(C)nc2ncnn2c1N1CCC(C(=O)Nc2ccccc2)CC1
1.4	CC(C)(CNC(=O)c1ccc(S(=O)(=O)N2CCCC2)cc1)N1CCOCC1
0.44	CC(C)OCCCNC(=O)C1CCC(CNS(=O)(=O)c2cccc3nsnc23)CC1 (stereo unspecified)

# Next results follow:
Kir21 inh	Compound
1.1	Cc1ccc(NC(=O)CN2CCN(C(=O)c3ccco3)CC2)cc1
-0.44	Nc1cccnc1Sc1cc(Cl)cc(Cl)c1
-0.2	Cc1nnc(SCC(=O)Nc2ccc(C(N)=O)cc2)n1-c1ccccc1
1.1	Cc1ccc(-n2ncc3c(=O)n(CC(=O)NC4CCCC4)cnc32)cc1C
-1.9	O=C(Cc1cccs1)N(CC1CCCO1)C1(C(=O)NC2CCCCC2)CCCCC1 (stereo unspecified)
-0.74	CCOC(=O)c1ccccc1NC(=O)c1ccccc1SC
-0.02	COc1cccc2[nH]c3c(N4CCCC(C)C4)ncnc3c12 (stereo unspecified)
0.7	CCn1ncc(-c2csc(N)n2)c1C
-0.13	CCCCC1=CC2=C(c3ccco3)C(=O)C(C)(OC(=O)c3ccc(OC)cc3)C(=O)C2=CN1CCOC (stereo unspecified)
1.6	N/C(=N\OC(=O)/C=C/c1ccccc1)c1ccc(Br)cc1
-0.07	COC(=O)c1ccc(C2=NOC(C)(c3sc(-c4ccc(Cl)cc4)nc3C)C2)cc1 (stereo unspecified)
2.5	CC(C)C(NC(=O)COc1ccc2ccccc2c1)C(=O)N/N=C/C=C/c1ccccc1 (stereo unspecified)
-0.35	O=C(/C=C(\c1ccc(Cl)cc1)n1cncn1)c1ccc(Cl)cc1
-0.4	COc1ccc(CC(=O)OCC(=O)NCc2ccccc2Cl)cc1
1.3	C[C@]12C(=O)N(c3cccc(Cl)c3)C(=O)N1[C@H]1c3ccccc3OC[C@@H]1[C@H]2c1ccccc1
0.74	CN(CCc1ccccn1)C(=O)CCC1CCCN(C(=O)c2c(F)ccc(F)c2F)C1 (stereo unspecified)
2.4	COc1ccccc1N1CCN(C(=O)c2cc(-c3ccco3)on2)CC1
2.3	O=C(NC1CCSc2ccccc21)c1ccccc1Cl (stereo unspecified)
0.37	CN(C)c1cccc2c1c(NC(=O)Nc1ccc(Cl)cc1Cl)nn2C
-0.29	CCN1CCN(c2nc(C)c3c(n2)CCCC3=O)CC1

# (listing goes on)
Kir21 inh	Compound
1.6	O=c1oc2ccccc2c(NC2CCCCC2)c1NS(=O)(=O)c1ccc(F)cc1
-0.61	COc1cc2nc(CN3CCN(S(=O)(=O)c4ccc(C)c(C)c4)CC3)[nH]c(=O)c2cc1OC
0.83	CC(c1nc2ccccc2c(=O)[nH]1)N1CCN(C)CC1 (stereo unspecified)
-0.14	O=C(O)CNC(=O)/C(=C\c1ccc2c(c1)OCO2)NC(=O)c1ccc(Br)cc1
-0.07	O=C(Nc1ccccc1C(=O)NCCc1ccccc1)c1ccco1
1.6	CN(C)S(=O)(=O)c1cccc(-c2cn3cccnc3n2)c1
0.48	Cc1ccc(C)c(NC(=S)NNC(=O)c2csc(C(C)C)c2)c1
-1.8	CC1CC(C)CN(S(=O)(=O)c2ccc(C(=O)N3CC(C)OC(C)C3)cc2)C1 (stereo unspecified)
0.26	O=C1CC(N2CCOCC2)C(=O)N1c1cc(Cl)cc(Cl)c1 (stereo unspecified)
1.1	O=C(Nc1ccccn1)c1ccc(Br)s1
-1.8	O=C(Nc1ccncc1)Nc1ccc(F)cc1F
0.3	NNc1nnc(-c2ccccc2)c(-c2ccccc2)n1
-0.18	NS(=O)(=O)c1ccc(CCNC(=S)Nc2ccc(F)cc2)cc1
-0.99	CN(C)/C=C/C(=O)c1ccc([N+](=O)[O-])c(CS(=O)(=O)c2ccccc2)c1
1.9	O=C(COc1cccnc1[N+](=O)[O-])N1N=C(c2ccc(Cl)cc2)CC1c1ccco1 (stereo unspecified)
-0.21	COc1ccc(S(=O)(=O)N2CCC(C(=O)NC3CCCC3)CC2)cc1OC
1.5	NS(=O)(=O)c1ccc(NC(=O)COC(=O)c2cn(-c3ccccc3)nc2-c2ccccc2)cc1
0.61	COc1ccc(CN2C(=NC(=O)c3ccccc3)SC3CS(=O)(=O)CC32)cc1 (stereo unspecified)
-0.01	O=C(O)/C(=C\c1ccccc1Cl)c1ccc(S(=O)(=O)N2CCCCC2)s1
-0.57	Cc1ccc(C(=O)NC2CCCCC2)cc1

# (further entries)
Kir21 inh	Compound
-1.3	Cc1ccc(NC(=S)N2CCN(S(=O)(=O)c3ccccc3)CC2)cc1
0.62	Cc1nnc(SCc2nc3sc(C(=O)O)c(C)c3c(=O)[nH]2)s1
-2.2	Cc1ccc(S(=O)(=O)Cc2nc3ccccc3c(=O)[nH]2)cc1
1.9&-1	CCOC(=O)c1ccc(N=c2sc(C(=O)OC)cc(=O)n2CCCN2CCOCC2)cc1
-1.3	NC(=O)Cn1cc(/C=N\NS(=O)(=O)c2ccc(F)cc2)c2ccccc21
1.2	CCOC(=O)C1=C(C)Nc2ccccc2N=C1NC(=O)C(CC)c1ccccc1 (stereo unspecified)
-1	Cc1cc(C)nc(SCc2ccc(C(=O)NN=C3C4CC5CC(C4)CC3C5)cc2)n1
0.89	COc1ccc(N(CC(=O)NC2CCCC2)C(=O)CCC(=O)Nc2cc(C)on2)c(OC)c1
-1.2	CC(=O)Nc1ccc2ccc3cccc4ccc1c2c34
0.17	C#Cc1ccc(CN2CCC(N3CCC(C(=O)NCc4ccccn4)CC3)CC2)cc1
1.6	CC(C)Cc1nn2c(=O)cc(O)nc2s1
2.1	CCOC(=O)c1sc2nc(C)[nH]c(=O)c2c1C
-1	COc1ccc(C(=O)Nc2ccnn2C2CCN(Cc3cnn(C)c3)CC2)cc1
1.8	COc1ccccc1/C=N/NC(=O)Cn1cnc([N+](=O)[O-])n1
1.1	COc1ccc(NC(=O)c2cccnc2Nc2ccccc2)cc1
0.01	Cc1ccc(N=Nc2c(N)n(-c3ccccc3)[nH]c2=O)cc1
-1.7	COC(=O)c1ccccc1NC(=O)Cn1nc(C(F)(F)F)c2c1CCC2
2.6	Cc1ccccc1OCCNC(=S)Nc1ccccc1
-0.08	Cc1c(C(=O)N2CCCC2)c(S(=O)(=O)NCC(C)c2ccccc2)c(C)n1C (stereo unspecified)
1.4	CCCNC(=O)C1CCN(S(=O)(=O)c2cccc3nonc23)CC1

# Fetched one by one from the list above, five records:
Kir21 inh	Compound
0.17	C#Cc1ccc(CN2CCC(N3CCC(C(=O)NCc4ccccn4)CC3)CC2)cc1
0.89	COc1ccc(N(CC(=O)NC2CCCC2)C(=O)CCC(=O)Nc2cc(C)on2)c(OC)c1
2.6	Cc1ccccc1OCCNC(=S)Nc1ccccc1
-1.7	COC(=O)c1ccccc1NC(=O)Cn1nc(C(F)(F)F)c2c1CCC2
1.9&-1	CCOC(=O)c1ccc(N=c2sc(C(=O)OC)cc(=O)n2CCCN2CCOCC2)cc1

# Copied from the list:
# COCc1nnc(NC(=O)c2ccc(S(=O)(=O)N(CC(C)C)CC(C)C)cc2)o1 @ Kir21 inh = 1.9
# Cc1cccc(OCC(=O)Nc2sc3c(c2C#N)CCC3)c1 @ Kir21 inh = 0.04
# COc1cc(Br)cc2cc(C(=O)N3CCN(C(=O)c4ccco4)CC3)c(=O)oc12 @ Kir21 inh = 0.45
# O=C(Nc1ccncc1)Nc1ccc(F)cc1F @ Kir21 inh = -1.8

# Exported with each value named: part of the list above.
> Cc1nnc(SCc2nc3sc(C(=O)O)c(C)c3c(=O)[nH]2)s1
- Kir21 inh: 0.62

> COC(=O)c1ccccc1NC(=O)Cn1nc(C(F)(F)F)c2c1CCC2
- Kir21 inh: -1.7

> CCCNC(=O)C1CCN(S(=O)(=O)c2cccc3nonc23)CC1
- Kir21 inh: 1.4

> CN(C)c1cccc2c1c(NC(=O)Nc1ccc(Cl)cc1Cl)nn2C
- Kir21 inh: 0.37

# Carrying on:
Kir21 inh	Compound
0.67	N/C(CS(=O)(=O)c1ccccn1)=N\OC(=O)c1ccccc1Cl
-1.4	CCNS(=O)(=O)c1ccc(NC(=O)c2cc(C(F)(F)F)nn2C)cc1
-1.2	CCOc1cc(/C=N/NC(=O)c2cccnc2)ccc1OCc1ccc(C(=O)OC)o1
-1.6	CCOc1ccccc1N1CN(C2CCCCC2)CNC1=S
-0.95	CN(C)S(=O)(=O)c1cccc(C(=O)OCC(=O)N2c3ccccc3NC(=O)C2(C)C)c1
0.08	C/C(O)=c1/c(=O)nc2cccc3c2=c1c1ccccc1c3=O
-0.68	COc1ccc(NS(=O)(=O)c2ccc(OCC(=O)N3CCOCC3)cc2)cc1Cl

# Source: PubChem (Johns Hopkins Ion Channel Center)
